FGF22 binding: shifts melting point of recombinant human FGF22. 340,000 compounds, 1.5% hits. Q9HCT0. calls only at 9.99 µM. AID 651658. recombinant FGF22 thermal shift, SYPRO orange fluorescence; percent of sucrose octasulfate shift, DMSO zero;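 active = melting point raised past a set limit in the mean and every replicate; three in four hits are not shown here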
Target sequence (Q9HCT0 whole entry, looked up): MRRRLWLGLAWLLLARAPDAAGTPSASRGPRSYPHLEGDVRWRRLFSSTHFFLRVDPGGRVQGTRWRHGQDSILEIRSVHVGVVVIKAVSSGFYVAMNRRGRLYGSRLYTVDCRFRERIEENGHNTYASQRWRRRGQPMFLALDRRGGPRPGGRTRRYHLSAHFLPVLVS
Calls only. The list is partial. The share of hits here may be higher or lower than overall.

C[C@H](CO)N1C[C@H](C)[C@H](CN(C)Cc2ccc(Cl)c(Cl)c2)Oc2ccc(NC(=O)Nc3ccc(C(F)(F)F)cc3)cc2C1=O was read as FGF22 binding inactive.
`COCC(=O)N(C)C[C@@H]1Oc2ncc(C#Cc3ccc(F)cc3)cc2C(=O)N([C@H](C)CO)C[C@H]1C` gave FGF22 binding inactive.
For COC(=O)[C@H]1[C@H](CO)[C@H]2Cn3c(ccc(C4=CCCCC4)c3=O)[C@H]2N1Cc1ccc2c(c1)OCO2 the results were FGF22 binding inactive.
For CCC(=O)N(C)C[C@H]1Oc2cc(-c3cccc(OC)c3)ccc2S(=O)(=O)N([C@H](C)CO)C[C@@H]1C the results were FGF22 binding inactive.
`COC(=O)[C@H]1[C@H](CO)[C@H]2Cn3c(ccc(-c4cncnc4)c3=O)[C@H]2N1C(=O)C1CCC1` gave FGF22 binding inactive.
CC(C)NC(=O)Nc1ccc2c(c1)C(=O)N(C)[C@@H]1CC[C@@H](CC(=O)NCc3ccc(F)cc3)O[C@@H]1CO2 was read as FGF22 binding inactive.
COCC#Cc1ccc2c(c1)O[C@H](CN(C)C(=O)CC1CC1)[C@H](C)CN([C@H](C)CO)S2(=O)=O was read as FGF22 binding inactive.
Screening CN1C(=O)c2cc(NC(=O)c3ccc(F)cc3)ccc2OC[C@@H]2O[C@H](CC(=O)NCC3CCCCC3)CC[C@@H]21 returned FGF22 binding inactive.
For O=C(C[C@H]1CC[C@H]2NC[C@@H](O)COC[C@@H]2O1)Nc1nccs1 the results were FGF22 binding inactive.
Screening OC[C@@H]1[C@@H](c2ccccc2)C2(CN(CC3CC3)C2)N1Cc1ccc(F)cc1 returned FGF22 binding inactive.
COc1ccc(CNC(=O)C[C@H]2CC[C@@H](NC(=O)Nc3ccc4c(c3)OCO4)[C@@H](CO)O2)cc1 was read as FGF22 binding inactive.
For C[C@@H]1CCCCO[C@@H](CN(C)CC2CC2)[C@@H](C)CN([C@H](C)CO)C(=O)c2cc(NC(=O)Nc3ccc4c(c3)OCO4)ccc2O1 the results were FGF22 binding inactive.

Arranged by molecular weight (largest number first): three of the compounds above
For COC(=O)[C@H]1[C@H](CO)[C@H]2Cn3c(ccc(C4=CCCCC4)c3=O)[C@H]2N1Cc1ccc2c(c1)OCO2 the results were FGF22 binding inactive.
Screening OC[C@@H]1[C@@H](c2ccccc2)C2(CN(CC3CC3)C2)N1Cc1ccc(F)cc1 returned FGF22 binding inactive.
For O=C(C[C@H]1CC[C@H]2NC[C@@H](O)COC[C@@H]2O1)Nc1nccs1 the results were FGF22 binding inactive.

More records follow:
Screening CO[C@@H]1CN(C)C(=O)c2ccc(NC(=O)Nc3cc(F)ccc3F)cc2OC[C@H](C)N(C)C[C@@H]1C returned FGF22 binding inactive.
N#Cc1cccc(-c2ccc(C3[C@@H]4CN(C(=O)Nc5ccc(C(F)(F)F)cc5)C[C@H]3N4)cc2)c1 (stereo partly drawn) was read as FGF22 binding inactive.
Screening Cc1noc(C)c1NC(=O)N[C@@H]1C=C[C@@H](CC(=O)Nc2ccc(-c3ccccc3)cc2)O[C@H]1CO returned FGF22 binding inactive.
Screening Cc1noc(C)c1NC(=O)N(C)C[C@H]1OCCCC[C@H](C)Oc2ccc(NC(=O)Nc3ccc(F)cc3)cc2C(=O)N([C@@H](C)CO)C[C@@H]1C returned FGF22 binding inactive.
For C[C@H](CO)N1C[C@H](C)[C@H](CN(C)S(=O)(=O)c2ccccc2)Oc2ccc(NC(=O)NC3CCCCC3)cc2C1=O the results were FGF22 binding inactive.
Screening COc1cccc(NC(=O)N[C@H]2C=C[C@H](CC(=O)Nc3ccc(-c4ccccc4)cc3)O[C@@H]2CO)c1 returned FGF22 binding inactive.
Screening CO[C@H]1CN(C)C(=O)c2cc(NS(=O)(=O)c3ccc(Cl)cc3)ccc2OC[C@H](C)NC[C@H]1C returned FGF22 binding inactive.
For CNC[C@H]1Oc2ccc(NC(=O)Nc3cccc4ccccc34)cc2C(=O)N([C@H](C)CO)C[C@@H]1C the results were FGF22 binding inactive.
`COc1ccc(S(=O)(=O)N(C)C[C@H]2Oc3ccc(NS(=O)(=O)c4ccc(C)cc4)cc3C(=O)N([C@H](C)CO)C[C@@H]2C)cc1` gave FGF22 binding inactive.
CC(C)NC(=O)N1CCCCN2[C@@H](CO)[C@H](c3ccc(Br)cc3)[C@@H]2C1 was read as FGF22 binding inactive.
`N#C[C@H]1[C@@H](c2ccccc2-c2ccc(F)cc2)[C@@H](CO)N1C(=O)NC1CCCCC1` gave FGF22 binding inactive.
For COCC(=O)N(C[C@@H]1N[C@H](CO)[C@H]1c1ccc(-c2cccnc2)cc1)C(C)C the results were FGF22 binding inactive.

Reprinted from the part before: 7 compounds, followed by the next part.
Screening COc1cccc(NC(=O)N[C@H]2C=C[C@H](CC(=O)Nc3ccc(-c4ccccc4)cc3)O[C@@H]2CO)c1 returned FGF22 binding inactive.
Screening CO[C@H]1CN(C)C(=O)c2cc(NS(=O)(=O)c3ccc(Cl)cc3)ccc2OC[C@H](C)NC[C@H]1C returned FGF22 binding inactive.
For CNC[C@H]1Oc2ccc(NC(=O)Nc3cccc4ccccc34)cc2C(=O)N([C@H](C)CO)C[C@@H]1C the results were FGF22 binding inactive.
`COc1ccc(S(=O)(=O)N(C)C[C@H]2Oc3ccc(NS(=O)(=O)c4ccc(C)cc4)cc3C(=O)N([C@H](C)CO)C[C@@H]2C)cc1` gave FGF22 binding inactive.
CC(C)NC(=O)N1CCCCN2[C@@H](CO)[C@H](c3ccc(Br)cc3)[C@@H]2C1 was read as FGF22 binding inactive.
`N#C[C@H]1[C@@H](c2ccccc2-c2ccc(F)cc2)[C@@H](CO)N1C(=O)NC1CCCCC1` gave FGF22 binding inactive.
For COCC(=O)N(C[C@@H]1N[C@H](CO)[C@H]1c1ccc(-c2cccnc2)cc1)C(C)C the results were FGF22 binding inactive.
CN1C(=O)c2cc(NC(=O)Nc3ccccc3F)ccc2OC[C@@H]2O[C@@H](CC(=O)NCc3ccc(-c4ccccc4)cc3)CC[C@H]21 was read as FGF22 binding inactive.
CNC[C@H]1Oc2ccc(NC(=O)Nc3ccc(OC)cc3)cc2CC(=O)N([C@@H](C)CO)C[C@@H]1C was read as FGF22 binding inactive.
C[C@@H]1CCCCO[C@H](CN(C)C(=O)Nc2ccc(C(F)(F)F)cc2)[C@H](C)CN([C@H](C)CO)C(=O)c2cc(NC(=O)Nc3ccc(F)cc3)ccc2O1 was read as FGF22 binding inactive.
CCNC(=O)C[C@@H]1CC[C@@H]2[C@@H](COc3ccc(NC(=O)Nc4ccc(Cl)cc4)cc3C(=O)N2C)O1 was read as FGF22 binding inactive.
Screening COc1ccc2c3c(n(C)c2c1)[C@@H](CO)N(C(=O)Cc1ccccc1)CC31CCN(C(C)=O)CC1 returned FGF22 binding inactive.
`C[C@@H]1CN([C@H](C)CO)C(=O)c2cc(C#CCN(C)C)cnc2O[C@@H]1CN(C)Cc1ccc(F)cc1` gave FGF22 binding inactive.
For COc1ccc(CN(C)C[C@H]2Oc3ccc(NC(=O)Nc4cccc5ccccc45)cc3C(=O)N([C@@H](C)CO)C[C@H]2C)cc1 the results were FGF22 binding inactive.
`CCC(=O)N1C[C@@H](C)[C@H](OC)CN(C)C(=O)c2cc(NC(=O)c3ccc(F)cc3)ccc2OC[C@H]1C` gave FGF22 binding inactive.
Screening COc1ccc2c3c(n(C)c2c1)[C@@H](CO)N(C(=O)c1ccc(F)cc1)CC31CCN(C(C)=O)CC1 returned FGF22 binding inactive.
Screening CCCC#Cc1cnc2c(c1)C(=O)N([C@H](C)CO)C[C@@H](C)[C@H](CN(C)C(=O)NC1CCCC1)O2 returned FGF22 binding inactive.
CO[C@@H](CN(C)Cc1cc(F)ccc1F)[C@@H](C)CN(C(=O)Nc1ccc(F)cc1)[C@H](C)CO was read as FGF22 binding inactive.
CN1CCN(C(=O)C[C@@H]2CC[C@@H]3[C@H](COC[C@H](O)CN3C(=O)C3CCOCC3)O2)CC1 was read as FGF22 binding inactive.
For C[C@H]1CN([C@@H](C)CO)S(=O)(=O)c2ccc(C#CCN(C)C)cc2O[C@@H]1CN(C)Cc1ccc2c(c1)OCO2 the results were FGF22 binding inactive.
COc1ccc(Cl)cc1NC(=O)c1cccc(S(=O)(=O)Nc2c(C)n(C)n(-c3ccccc3)c2=O)c1 was read as FGF22 binding inactive.
`C[C@@H]1CN([C@H](C)CO)C(=O)c2cccc(NC(=O)c3ccncc3)c2O[C@@H]1CN(C)C(=O)Nc1ccccc1` gave FGF22 binding inactive.
`COC(=O)[C@H]1[C@H](CO)[C@H]2Cn3c(ccc(-c4cccc(OC)c4)c3=O)[C@H]2N1Cc1nccs1` gave FGF22 binding inactive.
CNC(=O)C[C@H]1CC[C@@H]2[C@H](COc3ccc(NC(=O)c4cnccn4)cc3C(=O)N2C)O1 was read as FGF22 binding inactive.
`COc1cccc(-c2ccc3c(c2)O[C@H](CN(C)C(=O)C2CCCCC2)[C@H](C)CN([C@H](C)CO)S3(=O)=O)c1` gave FGF22 binding inactive.
For O=C(C[C@H]1C=C[C@H](NC(=O)c2ccccn2)[C@@H](CO)O1)NCc1cccc(F)c1 the results were FGF22 binding inactive.
For CO[C@H]1CN(C)C(=O)c2cc(NC(=O)C3CC3)ccc2OC[C@@H](C)N(C(=O)CN2CCOCC2)C[C@@H]1C the results were FGF22 binding inactive.
For Cc1ccc(-c2ccc3c(c2)O[C@@H](CN(C)Cc2cncnc2)[C@H](C)CN([C@@H](C)CO)S3(=O)=O)cc1 the results were FGF22 binding inactive.
Screening COc1cccc(NC(=O)N2[C@H](CO)[C@@H](c3ccccc3)[C@H]2CNCC(C)C)c1 returned FGF22 binding inactive.
Screening C=CCN1C(=O)N[C@@H]2c3ccccc3O[C@@]1(COCc1ccc(OC)cc1)[C@@H]2CO returned FGF22 binding inactive.
Screening CC(C)CC#Cc1ccc2c(c1)O[C@H](CN(C)C(=O)NC1CCCC1)[C@H](C)CN([C@@H](C)CO)S2(=O)=O returned FGF22 binding inactive.
For COCC(=O)Nc1ccc2c(c1)[C@@H]1C[C@@H](CC(=O)N(C)C)O[C@@H](CO)[C@@H]1O2 the results were FGF22 binding inactive.
`Cc1noc(C)c1NC(=O)N(C)C[C@H]1Oc2ccc(NC(=O)c3ccncc3)cc2CC(=O)N([C@H](C)CO)C[C@@H]1C` gave FGF22 binding inactive.
`O=C(C[C@@H]1CC[C@H]2[C@@H](COC[C@@H](O)CN2S(=O)(=O)c2ccccc2)O1)N1CCOCC1` gave FGF22 binding inactive.
C[C@@H]1CN([C@H](C)CO)C(=O)Cc2cc(NC(=O)Nc3cccc4ccccc34)ccc2O[C@H]1CN(C)S(=O)(=O)c1ccc(F)cc1 was read as FGF22 binding inactive.
Screening C[C@H]1CN([C@@H](C)CO)C(=O)Cc2cc(N(C)C)ccc2O[C@H]1CN(C)Cc1ccccc1 returned FGF22 binding inactive.
For C[C@H](CO)N1C[C@H](C)[C@@H](CN(C)C(=O)C2CC2)Oc2cc(Br)ccc2S1(=O)=O the results were FGF22 binding inactive.
For COC(=O)[C@]12C[C@H](CC(=O)N3CCCCC3)C(=O)N(Cc3ccccc3)C1=C[C@H](C1CCCC1)O[C@@H]2C the results were FGF22 binding inactive.
CCCN(C)C[C@@H]1Oc2cc(C#Cc3ccccc3F)ccc2S(=O)(=O)N([C@@H](C)CO)C[C@@H]1C was read as FGF22 binding inactive.
Screening CN1C(=O)c2cc(NC(=O)c3ccc(F)c(F)c3)ccc2OC[C@@H]2O[C@@H](CC(=O)N3CCCCC3)CC[C@@H]21 returned FGF22 binding inactive.
Screening Cc1noc(C)c1NC(=O)N(C)C[C@H]1Oc2ccc(NS(=O)(=O)c3ccccc3)cc2CC(=O)N([C@@H](C)CO)C[C@@H]1C returned FGF22 binding inactive.
For CC(C)(C)[S@](=O)N1Cc2cc(C(=O)NC3CCCCC3)nc(-c3cccc(Br)c3)c2[C@@H]1CCO the results were FGF22 binding inactive.
For CC(C)NC(=O)Nc1ccc2c(c1)CC(=O)N([C@H](C)CO)C[C@H](C)[C@H](CN(C)S(=O)(=O)c1ccccc1)O2 the results were FGF22 binding inactive.
O=C(C[C@@H]1CC[C@@H]2[C@H](COC[C@H](O)CN2Cc2ccc(F)cc2)O1)NCCc1ccccc1 was read as FGF22 binding inactive.
O=S(=O)(c1ccc(F)cc1)N1CC[C@@H]2[C@H]1c1cc(-c3ccccc3F)ccc1N[C@@H]2CO was read as FGF22 binding inactive.
Screening C[C@@H](NC(=O)C[C@@H]1C=C[C@@H](NC(=O)C2CCOCC2)[C@@H](CO)O1)c1ccccc1 returned FGF22 binding inactive.
C[C@@H]1CN([C@H](C)CO)C(=O)c2cccc(NS(=O)(=O)c3ccc(Cl)cc3)c2O[C@@H]1CN(C)Cc1ccccc1 was read as FGF22 binding inactive.
For CN1C[C@@H]2[C@H](c3ccccc31)[C@@H](CO)N2C(=O)C1CCCCC1 the results were FGF22 binding inactive.
For COc1ccc(S(=O)(=O)N(C)C[C@@H]2OCCCC[C@H](C)Oc3ccc(NC(=O)Nc4ccc(F)cc4)cc3C(=O)N([C@H](C)CO)C[C@H]2C)cc1 the results were FGF22 binding inactive.
O=C(C[C@H]1CC[C@H]2[C@@H](COC[C@@H](O)CN2C(=O)C2CCCC2)O1)NCc1ccncc1 was read as FGF22 binding inactive.
CC(=O)N(C)C[C@@H]1Oc2cc(C#CC(C)(C)O)ccc2S(=O)(=O)N([C@@H](C)CO)C[C@H]1C was read as FGF22 binding inactive.
C[C@@H]1CN([C@@H](C)CO)C(=O)c2cc(C3=CCCC3)cnc2O[C@@H]1CN(C)C(=O)C1CCCCC1 was read as FGF22 binding inactive.
C[C@H]1CN([C@@H](C)CO)C(=O)Cc2cc(NS(=O)(=O)c3ccc(Cl)cc3)ccc2O[C@H]1CN(C)S(=O)(=O)c1ccccc1 was read as FGF22 binding inactive.
Screening Cc1noc(C)c1S(=O)(=O)N(C)C[C@H]1Oc2ccc(NC(=O)CCN3CCOCC3)cc2CC(=O)N([C@@H](C)CO)C[C@H]1C returned FGF22 binding inactive.
Screening Cc1ccc(NC(=O)Nc2ccc3c(c2)C(=O)N(C)[C@H]2CC[C@@H](CC(=O)O)O[C@H]2CO3)cc1 returned FGF22 binding inactive.
For COc1ccc(S(=O)(=O)Nc2ccc3c(c2)CC(=O)N([C@@H](C)CO)C[C@H](C)[C@@H](CN(C)Cc2ccc(Oc4ccccc4)cc2)O3)cc1 the results were FGF22 binding inactive.

Screening results from PubChem.
